Screens deposited in PubChem by ICCB-Longwood Screening Facility, Harvard Medical School.
Polio RdRp inh – poliovirus RdRp elongation inhibitors, primary screen, biochemical, fluorescence polarization, total intensity. Genome polyprotein (Poliovirus type 1 (strain Mahoney)), P03300. poliovirus polymerase elongation; hits give low values. % elongation, % (compound at 16.7 µg/mL). 150,000 tested, 0.66% active; in the data active means % elongation below about 90%; further: some results filed as inactive read as strong as hits
Mtb MbtI inh – MbtI salicylate synthase inhibitors, primary screen, biochemical, fluorescence intensity; purified MbtI enzyme, fluorescence intensity read-out; inhibition, %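 (about 17 µg/mL by stock and volumes)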; AID 493033, 2011; 100,000 tested, 0.89% active; P9WFX0;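 active means above 50% in both replicates, above 80% if mildly self-fluorescent; inactive means the rest, strongly fluorescent compounds included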;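 further: 0% = mean of negative and 100% = mean of positive controls; one replicate is shown; some compounds called inactive have numbers as strong as hits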
Target sequence (P9WFX0 whole entry, looked up): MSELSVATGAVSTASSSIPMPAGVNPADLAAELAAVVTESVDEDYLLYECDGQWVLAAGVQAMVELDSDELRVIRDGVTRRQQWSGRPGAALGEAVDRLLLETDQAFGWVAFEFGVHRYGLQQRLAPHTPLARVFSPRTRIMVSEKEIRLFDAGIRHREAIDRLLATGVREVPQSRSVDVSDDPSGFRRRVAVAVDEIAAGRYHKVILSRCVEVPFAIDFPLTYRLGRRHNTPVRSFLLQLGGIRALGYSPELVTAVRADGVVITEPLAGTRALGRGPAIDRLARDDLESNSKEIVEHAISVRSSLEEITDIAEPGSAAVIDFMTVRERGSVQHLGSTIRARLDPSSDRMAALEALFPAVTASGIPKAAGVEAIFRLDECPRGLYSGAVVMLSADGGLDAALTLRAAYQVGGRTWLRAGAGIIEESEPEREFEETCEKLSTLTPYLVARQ
MenB inh – M. tuberculosis MenB inhibitors, primary screen, biochemical, absorbance | 1,4-dihydroxy-2-naphthoyl-CoA synthase (Mycobacterium tuberculosis (strain ATCC 25618 / … | MenB enzyme assay, absorbance read-out; some hits fall short of the stated cut | inhibition, %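 (about 12 µg/mL by stock and volumes)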 | 100,000 tested, 0.43% active;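 active means mean of two replicates above 30%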;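 further: 0% = no compound and 100% = wells with inactive enzyme; the first replicate is given; strong numbers were not always called active; inactives centre near -10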
Target sequence (P9WNP5 whole entry, looked up): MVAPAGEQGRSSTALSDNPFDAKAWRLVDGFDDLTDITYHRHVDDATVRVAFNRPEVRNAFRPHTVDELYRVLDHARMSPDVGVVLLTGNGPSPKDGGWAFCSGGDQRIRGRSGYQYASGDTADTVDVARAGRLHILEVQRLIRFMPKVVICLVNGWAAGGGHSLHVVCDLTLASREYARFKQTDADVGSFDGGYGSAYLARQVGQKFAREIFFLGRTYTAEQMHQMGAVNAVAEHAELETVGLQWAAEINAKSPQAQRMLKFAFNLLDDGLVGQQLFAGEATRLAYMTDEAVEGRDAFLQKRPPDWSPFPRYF
Polio RdRp inh intensity – further read-out of Polio RdRp inh, marked with its call; % elongation; measured here: total intensity read-out; formula for this scale not given here;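 total fluorescence in place of polarization; lower means less elongation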
Starred values were filed as active, the others as inactive; · = not tested or not shown.

SMILES	Polio RdRp inh	Polio RdRp inh intensity	Mtb MbtI inh	MenB inh
O=C(Cn1nnc(-c2ccccc2)n1)NC(=O)NCc1ccccc1	111	111	-9	-10
N#CCSc1ccc(-c2cccnc2)nn1	104	96	-5	-16
O=C(c1cccs1)c1coc2ccc(Cl)cc2c1=O	102	100	-11	·
CC1Cc2ccccc2N1C(=O)C1CC(=O)N(c2ccccc2)C1 (configuration not stated)	103	100	-7	-56
Cc1ccc(-n2c(C)c(C)c3c2N=CN2CCS(=O)(=O)N=C32)cc1	98	99	6	-12
COc1cccc(-c2nnc(-c3ccc(NC(=O)C(F)(F)F)cc3)o2)c1	109	112	·	-28
Cc1oc(-c2cccs2)nc1CS(=O)CC(=O)NC1CCCC1 (configuration not stated)	98	107	23	-6
COc1cccc(NC(=O)c2cn(C)c(=O)c3cc(OC)c(OC)cc23)c1	101	104	-1	-75
COc1ccc2c3c(cccc13)OCC2=O	97	104	-126	-29
Cn1c(C=C(C#N)C#N)ccc1S(C)(=O)=O	96	90	9	-7
CCOC(=O)c1c2c(n3ccccc13)C(=O)c1ccccc1C2=O	94	138	5	-19
C=CCn1c(CSc2nc(N)cc(N)n2)nnc1SCC(=O)NC1CCCCC1	99	101	2	-22
O=C(O)c1cccc(I)c1	98	91	7	9
COc1ccc(C2CC(c3ccc(Cl)c(Cl)c3)Nc3nc(N)nn32)cc1OC (configuration not stated)	103	104	-4	-10
CCC(CC)NS(=O)(=O)c1ccc(Br)cc1	100	101	4	-22
Cc1conc1NC(=O)CNC(=O)C1CCCCC1	101	101	-16	·
Cc1cc(O)c(C(=O)c2cccs2)c(=O)o1	90	92	29	-62
COc1ccc(OCCSc2nnc(-c3ccc(OC)cc3)o2)cc1	104	96	1	-40
CSc1nnc(CNC(=O)Cc2c(F)cccc2Cl)n1C	103	101	11	-34
CCOC(=O)c1nnc(Cc2ccc(C)cc2)o1	101	104	-3	-14
CCOC(=O)c1cnc2cc(OC)ccc2c1Cl	102	103	-3	13
Cc1ccc(NC(=O)c2ccn(C(=O)Nc3cccc(Cl)c3)n2)cc1	103	97	·	-4
CCOC(=O)NC1(Nc2ccccc2)Oc2ccccc2O1	99	97	11	-15
CCN(CC)C(=O)c1c[nH]c2ccc(S(=O)(=O)Nc3cc(C)cc(C)c3)cc2c1=O	101	106	-33	3
CC1(C)CC(=O)CC(c2ccccc2)(C(F)(F)F)O1 (configuration not stated)	105	101	-4	4
CS(C)(=O)=NS(=O)(=O)c1cc(S(=O)(=O)N=S(C)(C)=O)c(Cl)s1	102	103	3	12
Cc1ccc2oc(=O)c(/C=C(\O)CC(C)C)nc2c1	102	103	-1	69*
Cc1[nH]c(=S)c(C#N)c(C)c1Cc1ccc(Cl)cc1Cl	104	108	0	-11
CN(C)C(=O)Oc1ccc(OC(=O)N(C)C)cc1	104	105	0	-13
CCn1c(=NC(=O)C(C)(C)C)sc2ccccc21	104	106	21	-31
Cc1nc2ccccc2nc1SCc1nc(N)nc(N2CCCCC2)n1	103	105	2	0
O=C(CCN1C(=O)CCC1=O)OCC1CCCN2CCCCC12 (configuration not stated)	102	107	·	-3
CCOc1cc(/C=C2/C(=O)ON=C2C)cc(Cl)c1OCc1ccc(F)cc1	102	102	2	-14
CCCC(=O)Nc1nn2c(-c3ccc(OC)cc3)nnc2s1	101	103	-1	-12
Cc1cc(C)nc(/N=C2\NC(=O)CN2c2cc(Cl)cc(Cl)c2)n1	105	100	9	-35
COC(Cn1cc2c(c1-c1ccccc1Br)c(=O)n(C)c(=O)n2C)OC	102	102	-5	-12
O=C(CN1C(=O)/C(=C/c2ccccc2F)Oc2ccccc21)N1CCCC1	101	98	25	-21
O=S(=O)(CCc1ccccc1)/N=C/c1ccco1	100	99	-9	·
CCCCn1c(C)c(Cc2ccccc2)[nH]c1=O	101	92	-23	9
CCN(Cc1ccccc1)C(=O)/C=C/c1ccc(OC)cc1	102	103	7	-34
CCOc1ncccc1C(=O)OCc1ccccc1	103	109	-2	·
CCS/C=C/C#CC1(O)CCCCC1	104	101	-13	-8
CCOC(=O)c1ccc(NC(=O)c2cc3cc4c5c(c3oc2=N)CCCN5CCC4)cc1	81	191	-3	4
COc1ccc(-n2cc(-c3ccccc3)c3c(Nc4ccccc4)ncnc32)cc1	99	103	5	-7
COc1ccc(CCNc2ncnc3sccc23)cc1	105	103	4	-23
CCc1cccc(NC(=O)COC(=O)Cc2cn3ccsc3n2)c1	99	107	7	-29
CCOc1ccc(OC(C)C(=O)NN)cc1 (configuration not stated)	105	104	-4	-5
CCN(CC)CCCNC1CCCC1	100	97	-11	-8
CCOC(=O)c1noc(N)c1-c1ccccc1	103	107	-4	-4
COc1ccc(N2CCN(Cc3cn4c(C)cc(C)nc4n3)CC2)cc1	105	107	38	-18
COCCN1C(=O)CS/C1=C(/C#N)C(=O)NCc1ccco1	97	97	4	-41
COc1cc(/C=C(\NC(C)=O)C(=O)O)cc(OC)c1OC	109	117	1	4
COc1ccc(CCn2c(N)c(-c3nc4ccccc4[nH]3)c3nc(C#N)c(C#N)nc32)cc1OC	115	126	-1	6
NC(=O)C1CCN(C(=O)C2C3C=CC(O3)C2C(=O)O)CC1 (configuration not stated)	97	95	0	12
COc1ccc(C2Nn3c(C)nnc3SC2C(=O)NCc2ccco2)cc1Cl (configuration not stated)	102	107	-6	0
O=C(CCc1nc2ccccc2c(=O)[nH]1)N1CCN(c2ccccc2)CC1	103	105	-7	-19
Cc1ccc(C)c(NC(=O)C2=CCN(S(=O)(=O)c3ccc(F)cc3)CC2)c1	98	101	5	10
Cc1ccc(NC(=O)COC(=O)c2c(C)nsc2N)cc1C	104	106	6	-17
COc1ccc(C(=O)NCc2n[nH]c(=O)c3ccccc23)c(OC)c1	106	109	-4	-15
CC(NC(=O)c1ccccc1)C(=O)NN (configuration not stated)	105	97	·	12

Taken from above.
Entry for CCCCn1c(C)c(Cc2ccccc2)[nH]c1=O in MenB inh: 9
Entry for COC(Cn1cc2c(c1-c1ccccc1Br)c(=O)n(C)c(=O)n2C)OC in Mtb MbtI inh: -5
Entry for CCCC(=O)Nc1nn2c(-c3ccc(OC)cc3)nnc2s1 in Polio RdRp inh intensity: 103
Entry for O=C(CN1C(=O)/C(=C/c2ccccc2F)Oc2ccccc21)N1CCCC1 in Mtb MbtI inh: 25
Entry for Cc1ccc(NC(=O)c2ccn(C(=O)Nc3cccc(Cl)c3)n2)cc1 in MenB inh: -4
Entry for CCN(Cc1ccccc1)C(=O)/C=C/c1ccc(OC)cc1 in Mtb MbtI inh: 7
Entry for O=S(=O)(CCc1ccccc1)/N=C/c1ccco1 in Mtb MbtI inh: -9

(list continues)
SMILES	Polio RdRp inh	Polio RdRp inh intensity	Mtb MbtI inh	MenB inh
CCN1CCN(CC(=O)Nc2ccc(Cl)cn2)CC1	100	101	3	12
CSc1nc2c([nH]c3ccccc32)c(=O)n1C	98	101	6	-15
Cc1ccc(N=Cc2ccc(C)o2)cc1	102	106	-11	-8
CN(C)NC1CCS(=O)(=O)C1 (configuration not stated)	102	102	-4	-20
CN(C)C(=O)NCCc1ccc(F)cc1	100	101	-5	-19
O=C(c1ccc2c(c1)OCCO2)n1cccn1	101	102	20	-20
COC(=O)C1=CN(c2cccc(C(F)(F)F)c2)C=C(C(=O)OC)C1c1ccc(F)cc1	103	101	30	-5
O=C1CCCc2cc(S(=O)(=O)NCCC(=O)NC3CCCCC3)ccc2N1	101	103	-14	2
CCCCN(CC)Cc1ccc(CNC(=S)Nc2cccc(F)c2)o1	101	103	2	13
CSC1=NC2(CCN(C(=O)NC3CCCCC3)CC2)N=C1c1ccccc1	102	98	-1	1
CCNC(=O)NC1(C(=O)O)CC2CCC1(C)C2(C)CC (configuration not stated)	104	100	8	-16
CCCCNC(=O)Nc1ccc(S(=O)(=O)Nc2cccc(Cl)c2)cc1	104	101	-13	-32
C#CC1(O)CCC2C3CCC4=CC(=O)CCC4(C)C3CCC21C (configuration not stated)	100	101	-14	-4
Cc1ccc(-c2cn3c(n2)sc2cc(C(=O)O)ccc23)c(C)c1	105	109	-50	-9
CCc1nc2c(cnn2-c2ccc(F)cc2)c(=O)n1-c1ccc(OC)c(Cl)c1	102	103	-5	-15
CCCCN1Cc2c(sc3c2CCCC3)N(C(C)=O)C1	101	102	-6	4
O=S(=O)(Nc1ccccc1CO)c1ccc(S(=O)(=O)N2CCCC2)cc1	100	103	-13	-27
O=C1CN(c2cccc(C(F)(F)F)c2)C(=O)CN1/N=C/c1cccnc1	98	92	1	3
CCn1cc(CCC(=O)NCCN2CCOCC2)c2ccccc21	101	101	19	-23
Cc1cc(C)cc(OC(C)C(=O)Nc2ccc3c(c2)n(C)c(=O)n3C)c1 (configuration not stated)	100	109	0	-11
CCCC1C(=O)N2C(N(C)C)=Nc3ccc(C)cc3N2C1=O (configuration not stated)	99	102	-1	-6
O=C(CN1CCNC(=O)C1)NCCc1ccc(F)cc1	98	95	-9	-23
Cc1cccc(-n2c(SCc3c(C)noc3C)nc3ccccc32)c1	110	114	3	-36
Cc1ccc2c(c1)c1c3n2CCCNC3CCC1 (configuration not stated)	102	101	33	-6
O=C1Nc2ccccc2C1=Nc1ccc(Br)cc1	102	102	-22	-46
Cc1ccc(Cn2nc(C)c(C(=O)N=c3sccn3C)c2Cl)cc1	107	112	-3	-18
N=C(N)SCC1CN=C(N2CCCC2)S1 (configuration not stated)	100	102	2	-4
Cc1ccccc1NC1=C(C(=O)c2ccccc2)N(C)S(=O)(=O)c2ccccc21	104	102	-6	-10
CNC(=O)C12CC3CC(CC(C3)C1)C2	102	107	-9	·
COc1cccc(C(N)=O)c1OC(=O)COc1ccc(Br)cc1	·	·	9	-20
COC(=O)Cc1[nH]nc2c1C1(CCOC1C)C(C#N)=C(N)O2 (configuration not stated)	102	98	·	4
Cc1ccc(NC(=O)CCCn2c(=S)[nH]c3ccsc3c2=O)cc1C	103	101	17	-20
CCN1CCN(c2ccc(NC(=O)c3cccc(Br)c3)cc2)CC1	101	92	·	-9
NC(=S)N/N=C/c1coc2ccccc2c1=O	95	92	70	-19
COc1ccc(C2Nc3ccccc3O2)cc1 (configuration not stated)	108	112	1	-25
NNC(=O)c1cncn1-c1ccccc1	102	111	-2	-30
COc1ccc(OC)c(S(=O)(=O)NC2CCCC(C)C2C)c1 (configuration not stated)	103	100	-1	-11
CCc1ccc(-c2nc(CSCC(=O)NCc3ccccc3)c(C)o2)cc1	105	107	1	-16
O=C(CSc1ncn(-c2ccccc2)n1)N1CCc2ccccc21	100	102	26	-22
Cc1noc(C)c1CC(C#N)(Cc1c(C)noc1C)c1nc(-c2ccc(Cl)cc2Cl)cs1	113	113	0	-19
O=C(COc1ccc2c(=O)c(-c3ccccc3)coc2c1)OC1CCCCC1	100	100	9	-36
O=C(O)CNc1c(F)c(F)nc(F)c1F	98	97	31	-4
Cc1ccc(N2C(N)=NC(N)=NC2(C)C)cc1	103	103	-2	0
OC1(C#Cc2ccccc2)CCCCC1	101	101	1	5
CCOC(=O)c1ccccc1Nc1nc2ccccc2c2nnc(C)n12	104	105	-127	-21
Cc1ccc2cc(C)c(N3CC(C)OC(C)C3)nc2c1 (configuration not stated)	104	106	-33	·
CSc1ccc(C2CC(=O)Nc3c2c(=O)nc(SC)n3C)cc1 (configuration not stated)	100	102	16	-24
COc1ccccc1NC(=O)C1CC(=O)OC12CCOC(C)(C)C2 (configuration not stated)	110	110	·	-3
Cn1c(C(C#N)C(=O)c2ccccc2I)nc2ccccc21 (configuration not stated)	104	113	-1	-3
Cc1[nH]c(SCC(=O)O)nc1Cc1ccccc1	·	·	-7	-1
CC(=O)Nc1c(C(=O)N2CCN(c3ccccc3)CC2)oc2ccccc12	100	96	21	14
N#Cc1ccccc1CSc1nc2c(sc(=S)n2Cc2ccco2)c(=O)n1-c1ccc(F)cc1	102	102	-3	-17
O=C(c1ccc(CS(=O)(=O)c2ccc(Br)cc2)o1)N1CCN(Cc2ccc3c(c2)OCO3)CC1	101	101	-3	-4
O=C(COc1ccc(Cl)cc1)Nc1ccc2nc3n(c(=O)c2c1)CCCCC3	102	104	11	-5
O=C(CC(C(=O)N1CCc2ccccc21)n1ccnc1)N1CCc2ccccc2C1 (configuration not stated)	102	96	-11	-11
Cn1c(CNC(=O)c2cccs2)cc2ccccc21	104	100	-8	-15
CN(C)/C=N/c1nc(-c2ccc3c(c2)OCO3)cs1	96	93	19	-16
COc1ccc(NS(=O)(=O)c2ccc(C)c(Cl)c2)cc1	102	105	-14	·
COc1ccc(CN)cc1Cn1cccn1	103	105	5	-2

Of the compounds above, these contain bromine.
SMILES	Polio RdRp inh	Polio RdRp inh intensity	Mtb MbtI inh	MenB inh
CCC(CC)NS(=O)(=O)c1ccc(Br)cc1	100	101	4	-22
COC(Cn1cc2c(c1-c1ccccc1Br)c(=O)n(C)c(=O)n2C)OC	102	102	-5	-12
O=C1Nc2ccccc2C1=Nc1ccc(Br)cc1	102	102	-22	-46
COc1cccc(C(N)=O)c1OC(=O)COc1ccc(Br)cc1	·	·	9	-20
CCN1CCN(c2ccc(NC(=O)c3cccc(Br)c3)cc2)CC1	101	92	·	-9
O=C(c1ccc(CS(=O)(=O)c2ccc(Br)cc2)o1)N1CCN(Cc2ccc3c(c2)OCO3)CC1	101	101	-3	-4
